Bioassay records (PubChem BioAssay)
LYPLA1 counter: LYPLA1 (human) inhibition in PME1 counter-screen; recombinant LYPLA1, FP-Rh probe fluorescence polarization; actives 0.16% (n = 320,000); inhibition, % at 5.9 µM;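 active means inhibition above the mean of all tested compounds plus 3 SD, set per campaign, cut at about 14% in these data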;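 further: inhibitors block serine hydrolase probe labeling of LYPLA1 so polarization falls; 0% = enzyme with DMSO and 100% = wells lacking LYPLA1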
Target sequence (O75608 whole entry, looked up): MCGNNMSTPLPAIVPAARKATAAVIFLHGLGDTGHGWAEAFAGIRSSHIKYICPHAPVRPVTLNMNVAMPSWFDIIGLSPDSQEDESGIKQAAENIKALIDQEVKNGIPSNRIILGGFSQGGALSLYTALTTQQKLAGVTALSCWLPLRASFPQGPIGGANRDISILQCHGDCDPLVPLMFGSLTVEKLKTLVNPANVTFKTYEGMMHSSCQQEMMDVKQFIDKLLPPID
pPAFAH FP inh: pPAFAH (human) enzyme inhibition; Q13093; recombinant pPAFAH, FP-rhodamine probe fluorescence polarization; inhibition, % at 3.39 µM; actives 1.5% (n = 330,000);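 active means inhibition above the mean inhibition across the screen plus 3 SD, cut at about 25% in these data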;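 further: inhibitors block binding of the rhodamine activity-based probe so polarization drops; 0% = enzyme with DMSO and 100% = wells lacking pPAFAH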
PAFAH1B3 inh: inhibitors of human PAFAH1B3; Q15102; recombinant PAFAH1B3, FP-rhodamine probe, fluorescence polarization; actives 0.28% (n = 340,000); inhibition, % at 3.39 µM;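 active means inhibition above the screen-wide average of all tested compounds plus 3 SD, cut at about 25% in these data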;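 further: 0% = enzyme with DMSO only and 100% = wells lacking PAFAH1B3 protein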
PME-1 inh: blocks human protein phosphatase methylesterase 1; Q9Y570; recombinant PME-1, FP-Rh probe fluorescence polarization; inhibition, % at 5.9 µM; actives 0.53% (n = 320,000);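 active means inhibition above the campaign mean of all compounds plus 3 SD, cut at about 26% in these data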;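 further: competitive labeling of PME-1 active site by serine hydrolase directed probe; 0% = PME-1 with DMSO and 100% = wells lacking PME-1 enzyme; inhibitors block probe labeling so polarization falls and inhibition rises; many of its hits are not listed in these tables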
Target sequence (Q9Y570 whole entry, looked up): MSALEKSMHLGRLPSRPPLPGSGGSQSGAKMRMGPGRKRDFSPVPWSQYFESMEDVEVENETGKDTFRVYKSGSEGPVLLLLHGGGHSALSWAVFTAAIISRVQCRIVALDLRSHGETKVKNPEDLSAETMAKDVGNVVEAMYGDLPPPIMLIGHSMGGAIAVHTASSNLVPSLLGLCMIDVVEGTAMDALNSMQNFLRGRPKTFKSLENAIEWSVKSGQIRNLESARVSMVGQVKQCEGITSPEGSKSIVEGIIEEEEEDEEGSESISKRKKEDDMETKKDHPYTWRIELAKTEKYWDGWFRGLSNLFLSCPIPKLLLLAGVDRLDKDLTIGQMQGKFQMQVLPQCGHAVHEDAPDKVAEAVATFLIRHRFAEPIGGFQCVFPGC
PAD4 inh: PAD4 (human) enzyme inhibition; Q9UM07; recombinant PAD4, RCA probe fluorescence polarization; inhibition, % at 6.36 µM; actives 0.41% (n = 330,000); AID 485272;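 active means percent inhibition above a cutoff equal to the mean of all tested compounds plus 3 SD, cut at about 15% in these data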;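 further: 0% = PAD4 with RCA probe and DMSO and 100% = probe without PAD4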
PAFAH2 inh: inhibitors of human PAFAH2; Q99487; recombinant PAFAH2, FP-rhodamine activity probe, fluorescence polarization; inhibition, % at 3.39 µM; actives 0.99% (n = 340,000);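 active means inhibition above the mean over all tested compounds plus 3 SD, cut at about 30% in these data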;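 further: inhibitors block probe labeling of enzyme so polarization drops; 0% = enzyme with DMSO and 100% = wells lacking PAFAH2 protein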
LYPLA2 counter: counter-screen for PME1 inhibitors: inhibitors of human LYPLA2 | O95372 | recombinant LYPLA2, FP-Rh probe fluorescence polarization | inhibition, % at 5.9 µM | actives 0.38% (n = 320,000);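 active means inhibition above the screen-wide mean plus 3 SD, limit set per campaign, cut at about 26% in these data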;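 further: 0% = LYPLA2 with DMSO and 100% = wells lacking LYPLA2 enzyme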
Target sequence (O95372 whole entry, looked up): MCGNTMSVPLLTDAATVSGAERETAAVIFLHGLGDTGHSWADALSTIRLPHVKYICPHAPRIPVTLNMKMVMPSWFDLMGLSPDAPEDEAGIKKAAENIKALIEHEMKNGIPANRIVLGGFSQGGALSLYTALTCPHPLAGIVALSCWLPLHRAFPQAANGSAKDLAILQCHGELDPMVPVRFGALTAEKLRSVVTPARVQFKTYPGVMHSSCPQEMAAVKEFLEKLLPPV
GSTO1 inh: counter-screen for RBBP9 inhibitors: inhibitors of human GSTO1 | recombinant GSTO1, activity-based probe fluorescence polarization | inhibition, % at 5.96 µM | P78417 | actives 1.1% (n = 300,000);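 active means inhibition above the campaign mean inhibition plus 3 SD, cut at about 35% in these data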;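 further: 0% = GSTO1-1 with DMSO and 100% = wells lacking GSTO1-1 enzyme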
* = called active by the depositor; x = not tested or not shown. Only part of the results is shown; the hit share may differ from the screen's.

#1 Cc1ccc(S(=O)(=O)NN/C(=N/S(=O)(=O)c2ccccc2)c2ccccc2)cc1
#2 NC(=O)c1ccsc1NC(=O)COC(=O)CSc1ccc(Cl)cc1
#3 N#Cc1ccc(OCc2cccc(S(=O)(=O)N3CCOCC3)c2)cc1
#4 O=C(Oc1ccc2cc(Br)ccc2c1)c1cccnc1
#5 N#Cc1ccc(-c2cccnc2)nc1SCc1ccc(Cl)c(Cl)c1

entry no.	1	2	3	4	5
LYPLA1 counter	-2	-4	2	-1	x
pPAFAH FP inh	-5	12	4	2	x
PAFAH1B3 inh	13	6	4	1	-3
PME-1 inh	2	-5	-4	-1	x
PAD4 inh	-3	-6	5	0	x
PAFAH2 inh	3	-2	0	2	-5
LYPLA2 counter	-1	-16	9	0	x
GSTO1 inh	5	0	11	-1	x

#6 COc1ccc(NS(=O)(=O)c2cccc(C(=O)NNC(=O)c3cccc(NC(C)=O)c3)c2)cc1
#7 Cc1cccc2cc(C(c3nnnn3Cc3ccc4c(c3)OCO4)N3CCCC3)c(=O)[nH]c12 (centres undefined)
#8 CCCc1cc(=O)[nH]c(SCC(=O)Nc2sc3c(c2C#N)CCCC3)n1
#9 COc1ccc(NC(=O)CC2C(=O)NCCN2C(=O)Nc2ccc(C(F)(F)F)cc2)cc1 (centres undefined)
#10 Cc1ccc(S(=O)(=O)Nc2ccc(S(=O)(=O)Nc3ncccn3)cc2)cc1

entry no.	6	7	8	9	10
LYPLA1 counter	-4	-2	-3	-6	5
pPAFAH FP inh	32*	7	11	-2	5
PAFAH1B3 inh	-2	8	6	7	5
PME-1 inh	-6	1	6	1	-2
PAD4 inh	-1	3	-1	2	6
PAFAH2 inh	5	-9	4	-7	11
LYPLA2 counter	-5	5	3	-9	8
GSTO1 inh	8	19	-9	4	5

#11 S=c1[nH]nc(C2(c3ccccc3)CCCC2)o1
#12 CC1(C)C2CCC(C2)C1C/C=N/NC(N)=S (centres undefined)
#13 COc1ccc(OC)c(S(=O)(=O)Nc2ccccc2C(F)(F)F)c1
#14 Cn1c(C(=O)NCC2CCCO2)cc2c(=O)n3ccccc3nc21 (centres undefined)
#15 O=C(NCC1(c2ccccc2)CCCC1)C1(c2ccccc2)CCCC1

entry no.	11	12	13	14	15
LYPLA1 counter	6	4	0	1	1
pPAFAH FP inh	6	4	12	0	2
PAFAH1B3 inh	0	4	-4	-3	5
PME-1 inh	-2	0	10	-2	-3
PAD4 inh	-3	-3	-3	5	-5
PAFAH2 inh	-1	2	-3	8	6
LYPLA2 counter	0	1	1	-1	6
GSTO1 inh	5	5	13	0	-3

#16 CCOC(=O)C1(CCCc2ccccc2)CCN(C(=O)Cc2nonc2C)CC1
#17 O=C(COC(=O)C1(c2ccc(Cl)cc2)CCCC1)Nc1ncc(C(F)(F)F)cc1Cl
#18 CC(C)(C)N(Cc1ccccc1)C(=O)CSc1nnc(CNc2ccc(F)cc2)o1
#19 NC(=O)COC(=O)CCSc1ccc(Cl)cc1
#20 CN(CC(=O)NCCc1ccc(Cl)cc1)S(=O)(=O)c1cccs1

entry no.	16	17	18	19	20
LYPLA1 counter	-2	-5	4	-4	4
pPAFAH FP inh	1	-9	6	1	6
PAFAH1B3 inh	7	-3	3	3	-1
PME-1 inh	-9	-3	1	-12	-1
PAD4 inh	-3	-8	-1	1	-5
PAFAH2 inh	16	0	-3	-3	-5
LYPLA2 counter	4	-12	10	-4	5
GSTO1 inh	6	2	0	7	4

#21 Cc1ccc(S(=O)(=O)N2[C@@H](c3ccc(F)cc3)C(C(=O)O)=CC[C@H]2c2ccc(C(C)C)cc2)cc1
#22 O=S(=O)(/N=C(/Nc1cccc2ccccc12)c1ccccc1)c1ccc(Br)cc1
#23 O=C1CCN(Cc2ccc(Br)cc2)CCN1[C@H](CO)Cc1ccccc1
#24 Nc1nc(C23CC4CC(CC(C4)C2)C3)cs1
#25 O=C(CSCc1ccc([N+](=O)[O-])cc1)NC1CC1

entry no.	21	22	23	24	25
LYPLA1 counter	-3	-6	2	-5	5
pPAFAH FP inh	11	4	9	-1	3
PAFAH1B3 inh	8	6	11	6	-7
PME-1 inh	-3	-2	4	4	1
PAD4 inh	-3	0	-1	-1	-3
PAFAH2 inh	2	-7	1	2	-10
LYPLA2 counter	-5	-12	0	2	4
GSTO1 inh	-30	1	6	0	2

#26 Cn1c(N)c(C(=O)COC(=O)CSc2ccc3ccccc3c2)c(=O)n(C)c1=O
#27 O=C(NC(=S)NCC1CCCO1)c1ccc(Cl)cc1Cl (centres undefined)
#28 CCOC(=O)c1c(NC(=O)COC(=O)Cn2cnc3ccccc32)sc2c1CCC(C)C2 (centres undefined)
#29 COc1ccc(S(=O)(=O)NCCSc2ccc(Cl)cc2)cc1OC
#30 Cc1cccc(-c2n[nH]c(=S)n2/N=C/c2ccc(C)o2)c1

entry no.	26	27	28	29	30
LYPLA1 counter	-2	-6	-3	2	-2
pPAFAH FP inh	-6	5	9	2	2
PAFAH1B3 inh	-3	6	-4	-2	0
PME-1 inh	1	-5	-2	3	-4
PAD4 inh	-3	-4	2	-1	5
PAFAH2 inh	1	1	-7	6	-1
LYPLA2 counter	0	-1	-3	1	-2
GSTO1 inh	-2	5	-4	10	7

Records 26 through 29 from above:
#26 Cn1c(N)c(C(=O)COC(=O)CSc2ccc3ccccc3c2)c(=O)n(C)c1=O
#27 O=C(NC(=S)NCC1CCCO1)c1ccc(Cl)cc1Cl (centres undefined)
#28 CCOC(=O)c1c(NC(=O)COC(=O)Cn2cnc3ccccc32)sc2c1CCC(C)C2 (centres undefined)
#29 COc1ccc(S(=O)(=O)NCCSc2ccc(Cl)cc2)cc1OC

entry no.	26	27	28	29
LYPLA1 counter	-2	-6	-3	2
pPAFAH FP inh	-6	5	9	2
PAFAH1B3 inh	-3	6	-4	-2
PME-1 inh	1	-5	-2	3
PAD4 inh	-3	-4	2	-1
PAFAH2 inh	1	1	-7	6
LYPLA2 counter	0	-1	-3	1
GSTO1 inh	-2	5	-4	10

New compounds follow:
#31 O=S(=O)(O)c1nc2ccccc2n1Cc1ccc(Cl)cc1Cl
#32 O=C(CSCc1ccc(Cl)cc1)N1CCCCC1
#33 O=C(Nc1nnc(COc2ccc(Cl)cc2)s1)c1cccs1
#34 O=C(CCCOc1ccc(Cl)cc1Cl)NC(Cc1ccccc1)C(=O)O (centres undefined)
#35 CCO/N=C(/C)c1c(O)cc(C(C)(C)C)n(-c2ccccc2)c1=O

entry no.	31	32	33	34	35
LYPLA1 counter	-4	6	0	x	2
pPAFAH FP inh	3	6	-4	x	3
PAFAH1B3 inh	1	-3	0	11	0
PME-1 inh	2	4	-10	x	3
PAD4 inh	3	-2	2	x	-4
PAFAH2 inh	3	5	-2	-2	-6
LYPLA2 counter	-5	6	3	x	2
GSTO1 inh	1	11	-7	x	-4

#36 Cc1ccc(SCCSc2nc(N)cc(=O)[nH]2)cc1
#37 S=c1nc(-c2ccccc2)n(-c2ccccc2)[nH]1
#38 Clc1ccc(CSCCc2ccncc2)cc1
#39 Cc1ccc(S(=O)(=O)N2CCOCC2)cc1NC(=O)CSc1ccc(Cl)cc1
#40 Cc1c(CCC(=O)O)c(=O)oc2cc(OCc3ccc(Br)cc3)ccc12

entry no.	36	37	38	39	40
LYPLA1 counter	2	0	2	4	x
pPAFAH FP inh	-1	4	14	7	x
PAFAH1B3 inh	2	10	0	-1	8
PME-1 inh	2	-2	-6	7	x
PAD4 inh	1	-3	-7	-8	x
PAFAH2 inh	-8	-4	4	2	6
LYPLA2 counter	8	-5	5	5	x
GSTO1 inh	3	-6	6	2	x

#41 Cc1cc2cc(CCNC(=O)CCCc3ccccc3)c(=O)[nH]c2cc1C
#42 CC1(C)C(=O)Nc2ccccc2N1C(=O)COC(=O)CSc1ccc(F)cc1
#43 C(CCc1nn[nH]n1)CCC1CCCCC1
#44 CNC(=O)c1ccccc1NC(=O)c1cccc(S(=O)(=O)N2CCC(C)CC2)c1
#45 O=C(COC(=O)CCSc1ccc(Cl)cc1)NCc1ccco1

entry no.	41	42	43	44	45
LYPLA1 counter	0	-2	x	-12	3
pPAFAH FP inh	7	11	x	0	12
PAFAH1B3 inh	5	0	4	0	18
PME-1 inh	0	3	x	0	0
PAD4 inh	3	4	x	-5	2
PAFAH2 inh	2	-2	16	1	2
LYPLA2 counter	7	-1	x	-5	2
GSTO1 inh	0	x	x	-18	11

#46 Cc1ccc(SCC(=O)c2cc(C)c(O)c(C)c2)cc1
#47 CC(NC(=O)c1cccc(S(=O)(=O)N2CCN(Cc3ccccc3)CC2)c1)c1ccc(Cl)cc1 (centres undefined)
#48 Cc1ccc(SCC(=O)NCCc2ccccc2)cc1
#49 CCOc1ccc(C(=O)C(CN2CCOCC2)c2ccccc2)cc1 (centres undefined)
#50 Cc1ccc(C)c(S(=O)(=O)NC(Cc2c[nH]c3ccccc23)C(=O)O)c1 (centres undefined)

entry no.	46	47	48	49	50
LYPLA1 counter	-7	x	0	0	0
pPAFAH FP inh	5	x	1	0	0
PAFAH1B3 inh	5	-2	7	9	6
PME-1 inh	0	x	-4	-8	0
PAD4 inh	-1	x	1	4	-5
PAFAH2 inh	6	-4	4	5	1
LYPLA2 counter	0	x	-5	0	-1
GSTO1 inh	0	x	5	-19	-7

#51 Cc1nc(CSc2ccc(Cl)cc2)cs1
#52 O=C(Cc1coc2cc(O)ccc12)N1CCN(S(=O)(=O)c2ccc(Br)cc2)CC1
#53 CC(C)c1ccc(OCC(=O)NC(Cc2c[nH]c3ccccc23)C(=O)O)cc1 (centres undefined)
#54 CCCCOc1ccc(C(=O)C(CN2CCOCC2)c2ccccc2)cc1 (centres undefined)
#55 COc1ccc(CNC(=O)CCOc2ccc(C(C)(C)C)cc2)cc1

entry no.	51	52	53	54	55
LYPLA1 counter	3	x	-3	-4	1
pPAFAH FP inh	5	x	17	4	0
PAFAH1B3 inh	4	-2	10	-1	3
PME-1 inh	-4	x	-4	3	-3
PAD4 inh	-8	x	-2	3	1
PAFAH2 inh	4	-5	-3	-12	-15
LYPLA2 counter	-1	x	-7	2	5
GSTO1 inh	0	x	3	-15	-4

#56 COc1cccc(/C=C/C(=O)OCC(=O)N2CCN(S(=O)(=O)c3ccc(Cl)cc3)CC2)c1
#57 O=C(NC1CCCCC1)C(c1ccncc1)N(C(=O)c1csnn1)c1ccccc1 (centres undefined)
#58 Cc1ccc(S(=O)(=O)Nc2c(C(=O)O)[nH]c3ccccc23)cc1C
#59 C[C@H]1CCC(=O)N(CCSc2ccc(Br)cc2)CC1
#60 Cc1cnc(C(=O)OCC(=O)N2CCN(S(=O)(=O)c3ccc(Cl)cc3)CC2)cn1
#61 CC(Oc1ccc(Br)cc1)C(=O)O/N=C(\N)c1ccncc1 (centres undefined)

entry no.	56	57	58	59	60	61
LYPLA1 counter	3	3	-1	5	3	1
pPAFAH FP inh	8	3	14	11	-1	5
PAFAH1B3 inh	2	-2	6	13	-6	5
PME-1 inh	5	-7	3	2	6	2
PAD4 inh	1	-3	-6	-1	4	4
PAFAH2 inh	9	7	14	6	0	-2
LYPLA2 counter	0	3	6	3	9	5
GSTO1 inh	-2	-1	-3	x	0	3
